Source: PubChem (ICCB-Longwood Screening Facility, Harvard Medical School)
GIV Gai3 FP: blocks GIV peptide binding to rat Galpha-i3; Galpha-i3/FITC-GIV peptide fluorescence polarization, 90 min; active compounds read low; scaled: aluminum fluoride 0%, vehicle 100%; percent of control (FP), % (no concentration beside the values); 210,000 tested, 0.42% active; AID 1224905;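 active = replicate mean at 85% of control or lower, very high polarization wells dropped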;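 also: wells of about 15 µL received 100 nL stock; the first replicate is given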
Target sequence (P08753 whole entry, looked up): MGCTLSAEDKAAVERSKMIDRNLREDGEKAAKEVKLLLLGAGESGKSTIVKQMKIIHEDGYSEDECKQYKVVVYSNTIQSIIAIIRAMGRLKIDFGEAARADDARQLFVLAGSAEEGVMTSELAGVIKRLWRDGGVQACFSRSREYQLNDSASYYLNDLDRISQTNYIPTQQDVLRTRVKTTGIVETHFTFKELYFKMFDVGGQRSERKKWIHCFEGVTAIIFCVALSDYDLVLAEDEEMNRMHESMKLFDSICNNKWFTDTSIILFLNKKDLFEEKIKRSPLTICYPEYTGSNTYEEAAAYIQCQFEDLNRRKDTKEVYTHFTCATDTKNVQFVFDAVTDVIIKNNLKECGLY
Starred values were filed as active, the others as inactive.

The first three records, to show the layout:
SMILES | GIV Gai3 FP
COc1ccc(C2Oc3c(OC)cccc3C3CC(c4ccc(F)cc4)=NN32)cc1OC (configuration not stated) | 104
Cn1cc2c3c(cccc31)CN(C(=O)NCC1CCCO1)CC2 (configuration not stated) | 92
CCOC(=O)c1sc2nc(SCc3cc(F)cc4c3OCOC4)n(Cc3ccco3)c(=O)c2c1C | 106

The listing, repeating the preview:
SMILES | GIV Gai3 FP
COc1ccc(C2Oc3c(OC)cccc3C3CC(c4ccc(F)cc4)=NN32)cc1OC (configuration not stated) | 104
Cn1cc2c3c(cccc31)CN(C(=O)NCC1CCCO1)CC2 (configuration not stated) | 92
CCOC(=O)c1sc2nc(SCc3cc(F)cc4c3OCOC4)n(Cc3ccco3)c(=O)c2c1C | 106
C=CCn1c(SCC(=O)c2ccc(OC)cc2)nc2sc(CC)cc2c1=O | 102
Cc1cc(C2CCCN2C(=O)C2CCCC2)no1 (configuration not stated) | 102
CCOC(=O)Nc1ccc2c(c1)N(C(=O)OC)c1ccccc1CC2 | 122
COC(=O)c1c(C)oc2ccc(N(C(=O)c3c(OC)cccc3OC)S(=O)(=O)c3cccc([N+](=O)[O-])c3)cc12 | 110
N#CC1=C([S-])N[C@@](O)(c2ccccc2)[C@H]([n+]2ccc3ccccc3c2)[C@H]1c1cccc(F)c1 | 119
CS(=O)(=O)Nc1ccc(-c2noc(CNC(=O)Cc3ccc(Cl)cc3)n2)cc1 | 101
O=S(=O)(c1ccccc1)N1CCC2(CC1)NCCN=C2NCc1ccc(F)cc1 | 106
CCOc1cc(C(c2c(C)[nH]n(-c3ccccc3)c2=O)c2c(C)[nH]n(-c3ccccc3)c2=O)ccc1OCc1ccc(Cl)cc1 | 81*
CCOc1ccc(CN2CCCC2c2c(C)noc2CC)cc1 (configuration not stated) | 103
COc1cc(C2C(C#N)=C(N)OC(C)=C2C(C)=O)cc(OC)c1OC (configuration not stated) | 106
OC(CN1CCCCCC1)Cn1c2ccc(Br)cc2c2cc(Br)ccc21 (configuration not stated) | 116
Cc1ccc(/C=C2\SC(=S)N(CN3CCCC3)C2=O)cc1 | 107
Cc1cccc(N2CC(O)(c3ccc(OC(F)F)cc3)[N+]3=C2CCCC3)c1 (configuration not stated) | 110
O=S(=O)(NCCOC12CC3CC(CC(C3)C1)C2)c1cccc2nsnc12 | 102
Cc1ccccc1S(=O)(=O)Nc1ccc2nncn2n1 | 106
CC(=O)C1=C(C)OC(N)=C(C#N)C12C(=O)N(C)C1=C2CC=CC1 (configuration not stated) | 107
Cc1ccc(F)cc1NC(=O)CCc1nc(CSc2nc3ccccc3s2)no1 | 104
CN(Cc1ccccc1)C(=O)c1cccc(-c2ccc(S(=O)(=O)N3CCCCC3)cc2)c1 | 99
COc1ccc(CNC(=O)Cc2csc(NS(=O)(=O)c3ccc(Cl)cc3)n2)cc1 | 108
CCCCOC(=O)c1c(C)oc2c1cc(NS(=O)(=O)c1ccc3c4c(cccc14)C(=O)N3)c1ccccc12 | 111
O=c1c2c([nH]c(=S)n1-c1cccc(Br)c1)-c1ccccc1CC21CCCCC1 | 118
OCCOCCNc1ncnc2c1c(-c1ccccc1)cn2-c1ccc(Br)cc1 | 103
N#CC1=C(N)OC2=C(C(=O)CCC2)C1c1ccccc1OC(=O)c1cccc([N+](=O)[O-])c1 (configuration not stated) | 123
Clc1ccccc1-n1ncc2c(N3CCCC3)ncnc21 | 95
N#CC1(C#N)[C@H](c2ccccc2)[C@@H](C(=O)c2ccccc2I)N2c3ccccc3C=C[C@@H]21 | 106
COc1ccc(NC2=CC(c3cccc(OC)c3)N(c3ccc(OC)cc3)C2=O)cc1 (configuration not stated) | 104
CCOC(=O)C1CCCN(C(=O)c2c[nH]c3ccc(S(=O)(=O)N(C)c4ccc(CC)cc4)cc3c2=O)C1 (configuration not stated) | 115
COc1ccc(C2C(C(=O)OC3CCCC3)=C(C)NC3=C2C(=O)CC(c2cccs2)C3)c(OC)c1OC (configuration not stated) | 101
CCOC(=O)CCNC(=O)N1CCCC1c1cc(C)on1 (configuration not stated) | 100
COc1ccc(NC(c2ccc(O)cc2)P(=O)(OC)OC)cc1 (configuration not stated) | 113
Cc1nc(-c2cc(S(=O)(=O)NCCc3ccc(Cl)cc3)c(C)s2)sc1C | 99
O=S(=O)(c1ccc2c(c1)C(=NO)c1cc(S(=O)(=O)N3CCOCC3)ccc1-2)N1CCOCC1 | 103
Cc1cc(C)c(C2=NON3N(C(=O)C45CC6CC(CC(C6)C4)C5)c4ccccc4N23)c(C)c1 | 111
CCC(C)C(NC(=O)C(CC(C)C)NC(=O)OCc1ccccc1)C(=O)NN1S(=O)(=O)c2ccccc2S1(=O)=O (configuration not stated) | 106
CCOc1ccccc1NC(=O)c1c(NC(=O)C(C)Oc2cccc(Cl)c2)sc2c1CCC2 (configuration not stated) | 115
Cc1ccc(C2C3CCCC=C3C(C#N)=C(N)C2(C#N)C#N)cc1 (configuration not stated) | 113
Cc1c(CCNC(=O)c2ccc(F)c(F)c2)sc2nc(-c3ccc(Cl)cc3)nn12 | 98
CCNc1cc(C)nc(Nc2ccc(NC(C)=O)cc2)n1 | 104
Cc1c(N=Cc2ccc(Cl)cc2)c(=O)n(-c2ccccc2)n1C | 105
Cc1noc2nc(CCC(=O)NC3CC3)nc(N3CC(C)CC(C)C3)c12 (configuration not stated) | 101
Cc1cc2nc3[nH]c4ccc(F)cc4c3nc2cc1C | 118
Cc1ccc2c(c1)NC(C)(C)c1ssc(=Nc3ccc(C)c(Cl)c3)c1-2 | 115
Cc1c(NC(=O)CN2CCN(C/C=C/c3ccccc3)CC2)c(=O)n(-c2ccccc2)n1C | 103
O=c1n(Cc2cccc(C(F)(F)F)c2)nc2c(S(=O)(=O)N3CCCC3)cccn12 | 108
O=C1OC(c2ccc(Cl)c([N+](=O)[O-])c2)=N/C1=C\c1cc(Br)cs1 | 110
Cc1c(C(=O)NCC2CCCO2)sc2ncnc(N3CCN(c4ccccc4)CC3)c12 (configuration not stated) | 105
COc1ccc(NC(=O)c2cc(S(=O)(=O)N3CCN(c4cccc(C)c4C)CC3)ccc2F)cc1 | 106

Reprinted at random: 5 entries already listed, in no set order.
SMILES | GIV Gai3 FP
O=C1OC(c2ccc(Cl)c([N+](=O)[O-])c2)=N/C1=C\c1cc(Br)cs1 | 110
Cc1cc2nc3[nH]c4ccc(F)cc4c3nc2cc1C | 118
Cc1c(N=Cc2ccc(Cl)cc2)c(=O)n(-c2ccccc2)n1C | 105
Cc1c(C(=O)NCC2CCCO2)sc2ncnc(N3CCN(c4ccccc4)CC3)c12 (configuration not stated) | 105
O=c1n(Cc2cccc(C(F)(F)F)c2)nc2c(S(=O)(=O)N3CCCC3)cccn12 | 108

(cont.)
SMILES | GIV Gai3 FP
O=C(CSc1nnc(NC(=O)NC2CCCCC2)s1)Nc1ccc2c(c1)OCCO2 | 101
COC(=O)Cn1cc(/C=C2\NC(=O)N(Cc3ccc(Cl)cc3)C2=O)c2ccccc21 | 105
Cc1ccccc1N1CCN(C2=NC(=O)/C(=C\c3ccc(O)cc3)S2)CC1 | 115
Cc1ccc(S(=O)(=O)N2Cc3ccccc3CC2C(=O)NCc2cccc(C)c2)cc1 (configuration not stated) | 108
CCOC(=O)C1=C(C)N=c2s/c(=C3\C(=O)N(CC)c4ccccc43)c(=O)n2C1c1ccc(OC(=O)c2ccco2)cc1 (configuration not stated) | 97
COc1ccc(NC(=O)c2sc3nc(C)nc(N4CCN(c5ccccn5)CC4)c3c2C)cc1OC | 102
N#CC1(C#N)[C@H](c2ccccc2)[C@@H](C(=O)c2ccsc2)N2c3ccc(Cl)cc3C=C[C@@H]21 | 112
COc1ccc(C(=O)N2CCc3c([nH]c4ccccc34)C2c2ccc(OC)cc2)cc1 (configuration not stated) | 122
COc1ccc(NC(=O)c2ccc(-n3cnc4c(sc5nc(C)cc(C)c54)c3=O)cc2)cc1Cl | 92
Cc1noc(C)c1C1CCCN1Cc1cc(Br)ccc1F (configuration not stated) | 101
Cc1cccc(S(=O)(=O)Nc2ccccc2-c2ccc3ccccc3n2)c1 | 106
Fc1cccc(-c2noc(-c3cc(N4CCOCC4)nc4ccccc34)n2)c1 | 105
CN1CCN(c2nc(-c3ccc(Cl)cc3)cc(C(F)(F)F)n2)CC1 | 100
CC[n+]1c(/C=C/C=C2\N(C)c3ccccc3C2(C)C)n(-c2ccccc2)c2ccc(Cl)cc21 | -32*
CCCCCCCCc1ccc(-c2ccc(C(=O)OCC(C)CC)cc2)cc1 (configuration not stated) | 107
CC(C(=O)O)N1C(=O)C2C3c4ccccc4C(c4ccccc43)C2C1=O (configuration not stated) | 100
CC(C)c1ccc(NC(=O)Cn2cnc3c(sc4ncccc43)c2=O)cc1 | 99
COc1ccc(-n2c(=S)[nH]c3cc(C(=O)Nc4cc(OC)c(OC)c(OC)c4)ccc3c2=O)cc1OC | 119
COc1ccc(NC(=O)c2cc3cc(OC)ccc3oc2=Nc2ccc(C(=O)O)cc2)c(OC)c1 | 124
CCOc1ccc(-n2nnnc2CNC(=O)Nc2ccccc2)cc1 | 103

Among those listed so far, these have an aryl thioether with sulfur outside any ring.
SMILES | GIV Gai3 FP
CCOC(=O)c1sc2nc(SCc3cc(F)cc4c3OCOC4)n(Cc3ccco3)c(=O)c2c1C | 106
C=CCn1c(SCC(=O)c2ccc(OC)cc2)nc2sc(CC)cc2c1=O | 102
Cc1ccc(F)cc1NC(=O)CCc1nc(CSc2nc3ccccc3s2)no1 | 104
O=C(CSc1nnc(NC(=O)NC2CCCCC2)s1)Nc1ccc2c(c1)OCCO2 | 101

More records:
SMILES | GIV Gai3 FP
COc1ccc(/C=C2\C=C(c3ccccc3)N(c3cccc(I)c3)C2=O)cc1Br | 96
COc1ccc(/C=C(\NC(=O)c2ccc(C)cc2)C(=O)Nc2c(C)n(C)n(-c3ccccc3)c2=O)cc1 | 106
COCCNC(=O)c1ccc2c(c1)nc(C)n2-c1ccc(OCc2ccccc2)cc1 | 111
Cc1cc(N2C(=O)C3C4C=CC(C4)C3C2=O)ccc1N1C(=O)c2ccc(Cl)cc2C1=O (configuration not stated) | 103
CC1Cc2cccc3c(=O)c(C(=O)N4CCc5ccccc5C4)cn1c23 (configuration not stated) | 105
Cc1ccc(/C(O)=C2\C(=O)C(=O)N(c3ccccn3)C2c2ccc(C)cc2)cc1 (configuration not stated) | 118
CN1C(=O)COc2cc(-c3noc(C(=O)NCCC4=CCCCC4)n3)ccc21 | 103
Brc1cncc(-c2nc(-c3ccc(-c4csc(C5CC5)n4)cc3)no2)c1 | 101
O=C(Cc1cccc2ccccc12)N/N=C/c1ccc(Sc2nnc(-c3ccccc3)n2-c2ccccc2)o1 | 99
Cn1c2c(c(=O)n(C)c1=O)C(c1ccc([N+](=O)[O-])o1)C1=C(N2)c2ccccc2C1=O (configuration not stated) | 117
CCOC(=O)C1=C(C)NC2=C(C(=O)C(C(=O)OCC)C(c3ccccc3OC)C2)C1c1ccccc1C (configuration not stated) | 102
O=C(c1csc(-c2ccncc2)n1)N1CCN(c2ccccn2)CC1 | 109
O=Cc1ccc(Sc2nnc(-c3ccccc3)n2-c2ccccc2)o1 | 107
COc1cccc(-n2ccnc2SCc2nc(-c3ccccc3)no2)c1 | 105
Cn1c(=O)n(CC(=O)Nc2ccc3c(c2)OCCO3)c(=O)c2ccccc21 | 108
O=C(c1cccc(-c2nc(-c3ccc(F)cc3)no2)c1)N1CCN(c2ccccn2)CC1 | 107
O=C(Cc1cccc2ccccc12)Nc1ccc2nc(SCC(=O)N3CCOCC3)sc2c1 | 104
Cc1cccc(-c2cnc(N3CCC(C(=O)NC4CCCCC4)CC3)nc2)c1 | 102
COc1ccc(OC)c(N2CC(O)(c3ccc(C)cc3)[N+]3=C2SCCC3)c1 (configuration not stated) | 114
COc1ccc(S(=O)(=O)N2CCN(c3nc(C)cc(N4CCOCC4)n3)CC2)cc1OC | 101
CCOc1ccc(NC(=O)c2cnn3c(C(F)(F)F)cc(-c4ccc(OC)c(OC)c4)nc23)cc1 | 102
Cc1ccc(S(=O)(=O)N2CCc3c(c(-c4nc(-c5ccccc5)no4)nn3C)C2)cc1Cl | 102
CCN1CCN(S(=O)(=O)c2c(C)[nH]c(-c3nnc(C4CCC4)o3)c2C)CC1 | 98
Cc1ccc(Nc2nc(-c3ccc(C)cc3C)cs2)nc1 | 102
O=C1/C(=C/c2ccc(-c3ccc(Br)cc3)o2)C=C(c2ccccc2)N1c1cccc2ccccc12 | 126
O=C1OC2(C(=O)c3ccccc3C2=O)/C(=C(\O)c2cccc(Br)c2)C1=O | 105
Cc1ccc(CN2C(=O)/C(=C3\SC(=S)N(CCS(=O)(=O)O)C3=O)c3ccccc32)cc1 | 106
CCOc1cc(/C=C2\SC(=N)N(c3nccs3)C2=O)ccc1OCC(N)=O | 104
Cc1ccccc1S(=O)(=O)N1CCC2(CC1)NCCN=C2NCc1cc(F)cc(F)c1 | 102
COc1ccc(NC(=O)CN2C(=O)C(C(=O)N3CCCC3)Sc3ccccc32)cc1OC (configuration not stated) | 101
Cc1cccc(NC(=O)c2c(NC(=O)c3ccccc3C)sc3c2CCCCC3)c1 | 110
Cc1nc2cc(NC(=O)c3ccc(S(=O)(=O)N4CCCC(C)C4)cc3)ccc2s1 (configuration not stated) | 102
COc1cc(C2C(=O)N(C3CCCCC3)CC(=O)N2CC2COc3ccccc3O2)ccc1OC(C)C (configuration not stated) | 105
CC(NS(=O)(=O)c1ccc2c(c1)CCN2C(=O)N1CCCC1)C(=O)Nc1nccs1 (configuration not stated) | 102
Cc1c(Cl)cccc1-n1c(SCC(=O)c2ccc(Br)cc2)nc2[nH]ncc2c1=O | 101
c1ccc(C2=NN(c3ccccc3)C(c3ccc4c(c3)OCO4)N2c2ccc(N3CCOCC3)cc2)cc1 (configuration not stated) | 110

The list is partial (hit frequency here may not be typical).
